# Compound activity deposited in PubChem BioAssay by National Center for Advancing Translational Sciences (NCATS).
# MARV entry inh: inhibitors of Marburg virus binding or entry into cells; Marburg virus pseudotype entry/binding inhibition, cell-based; control for the full effect not named in the record; many of its hits are not listed in these tables; Potency, µM (highest dose often 49.2 µM), inactives show top-dose activity change, negative = inhibition, most hits filed as inhibitors; hit rate 6.5% among 18,000; active means well fitted inhibition curve with a large enough effect; inconclusive means small, poorly fitted or top-dose-only effect; inactive means no such curve, though single readings can be large or run the other way; tested in HEK293 cells; note: luciferase read-out
# LASV entry inh: inhibitors of Lassa virus binding or entry into cells; Lassa virus pseudotyped entry inhibition, cell-based qHTS; control for the full effect not named in the record; many of its hits are not listed in these tables; hit rate 4.1% among 18,000; AID 720533; Potency, µM (titrated, usually from 49.2 µM), for inactives: at the highest dose activity change, negative = inhibition, hits mostly inhibitors; active = well fitted inhibition curve with a large enough effect; inconclusive = small, poorly fitted or top-dose-only effect; inactive = no such curve, though single readings can be large or run the other way; tested in HEK293 cells; note: luciferase read-out
# Numbers without * were called inactive; ? = inconclusive; . = not tested or not shown; & = joins results of further samples; ! = not confirmed by another sample; [ ] = dose if it differs, or a comment. % is set by controls: 0 for no effect and ±100 for the full control effect; potency is the fitted concentration of half-maximal effect. The list is partial; rates above refer to the full screens.
SMILES,MARV entry inh,LASV entry inh
COc1cccc(CO[C@H]2C=C[C@@H](c3ccccc3)O[C@H]2CN=[N+]=[N-])c1,-17.2%[8.59 µM],25.1%[8.59 µM]
CCCCCCCCCC[N+](C)(C)CCCCCCCCCC,?,25.1µM*
C[C@@H]1C=CCCO[C@]12C(=O)Nc1ccccc12,-43.8%[8.59 µM],-18.8%[8.59 µM]
O=C(Nc1ccccc1)c1cc([N+](=O)[O-])ccc1Cl,?,-25.2%&-13.5%&-5.5%
O=C(O)C1NCCN(C(=O)c2ccc3c(ccc4ccccc43)c2)C1C(=O)O (stereo not given),8.8%,3.4%
CC(=O)OC1CC2C(C)(C)CCC(=O)[C@@]2(C)C2CC[C@@]3(C)C(c4ccoc4)OC(=O)C4OC43[C@]12C (stereo not given in full),9.4%,0.3%
COC(=O)C1=C(C)NC(C)=C(C(=O)OCCNCc2ccccc2)C1c1cccc([N+](=O)[O-])c1 (stereo not given),11.2µM*,?
OCCN1CCN(CCCN2c3ccccc3C=Cc3ccccc32)CC1,11.2µM*,25.1µM*!
CC(C)=CCCC(C)CCO (stereo not given),-0.8%,-6.8%
CCCCCC1OC1C/C=C\C/C=C\C/C=C\CCCC(=O)O (stereo not given),16.4%&-11.3%,3.6%&-5.9%
COc1ccc([C@H]2C[C@H](O)[C@@H](n3cc(C4CC4)nn3)CN2C(=O)c2cccs2)cc1,-2.3%,.
Cc1ccc(CN2CC=CCS2(=O)=O)cc1,7.1%,-7.9%
CNC(=O)[C@H]1O[C@@H](n2cnc3c(NCc4ccc(N)cc4)ncnc32)[C@H](O)[C@@H]1O,2.0%,1.0%
CCOC(=O)c1cc(-c2ccccc2)nc2ccc(C)cc12,12.6%,-4.0%
COC(=O)CCCC1=CC2=CC(=O)C(C)(OC(=O)c3cccs3)C(=O)C2=CN1CCN1CCOCC1 (stereo not given),15.4%[8.59 µM],-0.5%[8.59 µM]
CCCCCCCCCCCCC/C=C/[C@@H](O)[C@H](CO)NC(=O)CCCCCCC,7.8%&22.5%,8.5%&-2.3%
CNc1nc2c(N)ncnc2n1[C@@H]1O[C@@H]2COP(=O)(O)O[C@H]2[C@H]1O,22.5%,-0.2%
Cc1ccc(CNc2ncnc3sc(C(=O)N4CCC(N5CCCC(O)C5)CC4)c(C)c23)o1 (stereo not given),-17.8%,-10.6%
CC(=O)Nc1ccc(-c2nc3ccc(Cl)cc3[nH]2)cc1,70.6%[activator],-4.8%
COc1ccc2c(c1)O[C@H](c1ccc3c(c1)OCO3)[C@@H](OC(=O)N[C@H]1CCCc3ccccc31)C2=O,?,?

# Molecules shown so far that have a COOH group, in the order listed:
SMILES,MARV entry inh,LASV entry inh
O=C(O)C1NCCN(C(=O)c2ccc3c(ccc4ccccc43)c2)C1C(=O)O (stereo not given),8.8%,3.4%
CCCCCC1OC1C/C=C\C/C=C\C/C=C\CCCC(=O)O (stereo not given),16.4%&-11.3%,3.6%&-5.9%

# Further records.
SMILES,MARV entry inh,LASV entry inh
CNC[C@H](O)[C@H](O)[C@H](O)[C@H](O)CO,0.3%[17.8 µM],-3.3%[17.8 µM]
O=C(O)C1=CCCNC1,10.6%&7.5%&-8.6%,3.3%&0.4%&7.4%
CCCCCCCCCC=C[C@@H]1C[C@H]2C=CCO[P@@](=O)(O1)O2,11.6%,-4.3%
O=C(NC[C@@H]1CCCN2CCCC[C@H]12)c1cnn(-c2nccc(-c3ccco3)n2)c1C1CC1,-4.8%,-10.7%
CC1(O)/C=C\C=C(\CO)C2CC(C)(C)C2(O)CC1 (stereo not given),-1.4%,-0.9%
CC#CCN1C(=O)NC(c2ccccc2)C(C#N)=C1C (stereo not given),23.2%[8.59 µM],-18.1%[8.59 µM]
C=C(C)C(=O)OC[C@@H]1CN2[C@H](c3ccc(Br)cc3)[C@H](C)CC[C@H]2C(=O)O1,45.7%[activator][8.59 µM],10.6%[8.59 µM]
CC1CC[C@@]2(C(=O)O)CCC3(C)C(=CCC4[C@]5(C)CC(O)C(O)[C@](C)(CO)C5C(O)C[C@@]43C)C2C1C (stereo not given in full),19.6%,2.2%
CCCCCCCCCCCCC/C=C/[C@@H](O)[C@@H](N)COP(=O)([O-])OCC[N+](C)(C)C,-10.2%,2.6%
COc1ccc(C=CNC(=O)Cc2ccc(OC)c(OC)c2)cc1,24.4%[8.59 µM],-5.7%[8.59 µM]
C=CCNC(=O)N1CCc2nc(-c3ccccc3)c3c(c2C1)CO[C@@H](C)C3,-28.6%[8.59 µM],5.6%[8.59 µM]
OC[C@H]1O[C@@H](n2cnc3c(NC4CCCC4)nc(Cl)nc32)[C@H](O)[C@@H]1O,12.7%,-16.6%
OCC1=C[C@@H](O)[C@@H]2C=CO[C@@H](OC3O[C@H](CO)[C@@H](O)[C@H](O)[C@H]3O)[C@H]12 (stereo not given in full),-17.3%,4.6%
CN(C(=O)Cc1ccc(Cl)c(Cl)c1)C(CN1CCCC1)c1cccc(OCC(=O)O)c1 (stereo not given),17.6%,5.1%
O=C(O)C(Oc1ccc2ccc(=O)oc2c1)c1ccccc1 (stereo not given),11.3%,4.0%
CCCCCCN1CCN(C2CN(Cc3ccc(C)cc3)S(=O)(=O)C2)CC1 (stereo not given),-19.9%,?
CN1CCN(c2nc3cc(C(F)(F)F)ccc3n3cccc23)CC1,28.2µM*!,-22.0%&-17.3%
O=C(Nc1n[nH]c2nc(-c3ccco3)ccc12)C1CC1,-14.3%,.
C[C@@H]1CCC2[C@@H](C)[C@@H](O)O[C@@H]3O[C@@]4(C)CC[C@@H]1[C@@]23OO4 (stereo not given in full),1.26µM*,0.631µM*
OC(c1ccc(Cl)cc1)(c1cncnc1)c1ccccc1Cl (stereo not given),-3.4%,-14.3%
COc1ccccc1C1CN(Cc2c(O)cccc2OC)Cc2ccccc2O1 (stereo not given),2.1%,-14.9%
C[C@H]1[C@@H]2O[C@H]2CCO[C@H]1c1cccc(Br)c1,-16.0%[8.59 µM],-6.0%[8.59 µM]
C[C@@]12CC(=O)C3=C(CCCC3=O)N1CCc1ccccc12,7.5%,2.6%
CCN(CC)CCCN=C1NC(c2ccccc2)C(C(=O)OC)=C(C)N1CC (stereo not given),?,9.4%[8.59 µM]
COc1ccc(-c2cc3c(c4c2ccn4C)C2CCC3C2)cc1OC (stereo not given),?,-35.3%
Cc1ccc([C@H]2C[C@H](O)[C@@H](n3cc(C4CC4)nn3)CN2C(=O)C2CCCCC2)cc1,20.0%,-36.3%
CC1=C(O)C(=O)[C@H]2O[C@@H]2C1=O,2.6%,11.2µM*
CC(C)C[C@@H](CC(=O)N[C@@H](CCC(=O)O)CC(=O)O)NC(=O)[C@@H]1CCCC[C@H]1NC(=O)C[C@@H](NC(=O)C[C@H](Cc1ccccc1)NC(=O)[C@@H]1CCCC[C@H]1N)C(C)C,2.1%,-10.0%
Cn1ccc2c(N3CCCCC3)cc3c(c21)C1CCC3O1 (stereo not given),?,-24.6%

# An excerpt of these results, with two lines to a compound.
# Every second line gives: MARV entry inh	LASV entry inh
> CC1(O)/C=C\C=C(\CO)C2CC(C)(C)C2(O)CC1 (stereo not given)
  -1.4%	-0.9%
> CC#CCN1C(=O)NC(c2ccccc2)C(C#N)=C1C (stereo not given)
  23.2%[8.59 µM]	-18.1%[8.59 µM]
> C=C(C)C(=O)OC[C@@H]1CN2[C@H](c3ccc(Br)cc3)[C@H](C)CC[C@H]2C(=O)O1
  45.7%[activator][8.59 µM]	10.6%[8.59 µM]
> CC1CC[C@@]2(C(=O)O)CCC3(C)C(=CCC4[C@]5(C)CC(O)C(O)[C@](C)(CO)C5C(O)C[C@@]43C)C2C1C (stereo not given in full)
  19.6%	2.2%
> CCCCCCCCCCCCC/C=C/[C@@H](O)[C@@H](N)COP(=O)([O-])OCC[N+](C)(C)C
  -10.2%	2.6%
> COc1ccc(C=CNC(=O)Cc2ccc(OC)c(OC)c2)cc1
  24.4%[8.59 µM]	-5.7%[8.59 µM]
> C=CCNC(=O)N1CCc2nc(-c3ccccc3)c3c(c2C1)CO[C@@H](C)C3
  -28.6%[8.59 µM]	5.6%[8.59 µM]
> OC[C@H]1O[C@@H](n2cnc3c(NC4CCCC4)nc(Cl)nc32)[C@H](O)[C@@H]1O
  12.7%	-16.6%
> OCC1=C[C@@H](O)[C@@H]2C=CO[C@@H](OC3O[C@H](CO)[C@@H](O)[C@H](O)[C@H]3O)[C@H]12 (stereo not given in full)
  -17.3%	4.6%
> CN(C(=O)Cc1ccc(Cl)c(Cl)c1)C(CN1CCCC1)c1cccc(OCC(=O)O)c1 (stereo not given)
  17.6%	5.1%
> O=C(O)C(Oc1ccc2ccc(=O)oc2c1)c1ccccc1 (stereo not given)
  11.3%	4.0%
> CCCCCCN1CCN(C2CN(Cc3ccc(C)cc3)S(=O)(=O)C2)CC1 (stereo not given)
  -19.9%	?
> CN1CCN(c2nc3cc(C(F)(F)F)ccc3n3cccc23)CC1
  28.2µM*!	-22.0%&-17.3%
> O=C(Nc1n[nH]c2nc(-c3ccco3)ccc12)C1CC1
  -14.3%	.
> C[C@@H]1CCC2[C@@H](C)[C@@H](O)O[C@@H]3O[C@@]4(C)CC[C@@H]1[C@@]23OO4 (stereo not given in full)
  1.26µM*	0.631µM*
> OC(c1ccc(Cl)cc1)(c1cncnc1)c1ccccc1Cl (stereo not given)
  -3.4%	-14.3%
> COc1ccccc1C1CN(Cc2c(O)cccc2OC)Cc2ccccc2O1 (stereo not given)
  2.1%	-14.9%
> C[C@H]1[C@@H]2O[C@H]2CCO[C@H]1c1cccc(Br)c1
  -16.0%[8.59 µM]	-6.0%[8.59 µM]
> C[C@@]12CC(=O)C3=C(CCCC3=O)N1CCc1ccccc12
  7.5%	2.6%
> CCN(CC)CCCN=C1NC(c2ccccc2)C(C(=O)OC)=C(C)N1CC (stereo not given)
  ?	9.4%[8.59 µM]
> COc1ccc(-c2cc3c(c4c2ccn4C)C2CCC3C2)cc1OC (stereo not given)
  ?	-35.3%
> Cc1ccc([C@H]2C[C@H](O)[C@@H](n3cc(C4CC4)nn3)CN2C(=O)C2CCCCC2)cc1
  20.0%	-36.3%
> CC1=C(O)C(=O)[C@H]2O[C@@H]2C1=O
  2.6%	11.2µM*
